Screening data: PubChem, ICCB-Longwood Screening Facility, Harvard Medical School
VACV E9 pol inh – vaccinia E9 polymerase processive synthesis inhibitors, primary screen, biochemical, absorbance. Vaccinia virus DNA polymerase (E9) processive complex. in vitro processive DNA synthesis, absorbance read-out; active compounds read low; some inactives read as strong as hits. normalized absorbance, % (test concentration not listed). hit rate 0.94% among 46,000;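 active means replicate mean up to 90% and picked by the depositor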;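 further: 100% = median of the test wells of a plate; 100 nL library stock went into each well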
An asterisk follows results filed as active. A portion of the library; the hit share may differ from the screen's.

1) O=S(=O)(NC1=NCCCCC1)c1ccc2ccccc2c1
  VACV E9 pol inh = 101

2) Cc1ccc(S(=O)(=O)NC2=NCN(CCN3CCOCC3)CN2)cc1
  VACV E9 pol inh = 98

3) COc1ccc(C=Nc2ccc3[nH]c(=O)[nH]c3c2)cc1OC
  VACV E9 pol inh = 100

4) CC1CCN(C(=O)COC(=O)Cc2ccc(Cl)cc2)CC1
  VACV E9 pol inh = 108

5) Cc1oc2c(c1C(=O)NCCC(C)C)C(=O)c1ccccc1C2=O
  VACV E9 pol inh = 97

6) COc1ccc(C)cc1NC(=S)NC12CN3CN(CN(C3)C1)C2
  VACV E9 pol inh = 100

7) Cc1ccc(S(=O)(=O)n2c(C)cc(C(=O)O)c2C)cc1
  VACV E9 pol inh = 97

8) CC1CN(S(=O)(=O)c2ccc(C(=O)O)cc2)CC(C)O1 (stereo not drawn)
  VACV E9 pol inh = 89

9) COc1cccc(C2C3=C(CC(C)(C)CC3=O)OC3=C2C(=O)CC(C)(C)C3)c1OC
  VACV E9 pol inh = 102

10) Cc1c(Br)sc2sc(-c3nn(C)cc3Br)c(C)c12
  VACV E9 pol inh = 100

11) CCOc1c(NC(=O)c2ccc(N)cc2)cc(NC(=O)c2ccc(N)cc2)cc1C(N)=O
  VACV E9 pol inh = 101

12) CC(C)c1ccc2c(c1)CCC1C(C)(CNC(=O)/C=C/C(=O)O)CCCC21C (stereo not drawn)
  VACV E9 pol inh = 81*

13) O=C(c1ccccc1)N1CCN(c2ccccc2)CC1
  VACV E9 pol inh = 100

14) Cc1cc(C(F)(F)F)nn1C(=O)c1cccnc1Cl
  VACV E9 pol inh = 100

15) C=CCN1C2=NC(=O)CN2c2ccccc21
  VACV E9 pol inh = 100

16) CC1(c2ccccc2)CNC(=O)C1 (stereo not drawn)
  VACV E9 pol inh = 93

17) CC(C)(C)N=C(NS(=O)(=O)c1cccs1)c1ccccc1
  VACV E9 pol inh = 111

18) COc1ccccc1N1CCN(C(=O)CCNS(=O)(=O)c2ccc3c(c2)CCC(=O)N3)CC1
  VACV E9 pol inh = 104

19) Cc1c(CCO)sc[n+]1CC(=O)OC12CC3CC(CC(C3)C1)C2
  VACV E9 pol inh = 95

20) CCCc1c(C(=O)Nc2ccccc2N2CCCCC2)cnn1-c1ccccc1
  VACV E9 pol inh = 112

21) N#Cc1c(N)c2ccccn2c1C(=O)c1ccc(Br)cc1
  VACV E9 pol inh = 101

22) CC1CCN(C(=O)c2ccc(C(=O)N3CCC(C)CC3)cc2)CC1
  VACV E9 pol inh = 86

23) CC12CCC3C(CCC4CCCCC43C)C1C/C(=C\c1ccc[nH]1)C2=O (stereo not drawn)
  VACV E9 pol inh = 101

24) Cc1nc(N)nc(SCc2ccccc2Cl)c1Cl
  VACV E9 pol inh = 98

25) CCOC(=O)C(C)Sc1nnc(NC(=O)c2c(F)cccc2Cl)s1 (stereo not drawn)
  VACV E9 pol inh = 98

26) CCOC(=O)C1=C(O)c2ccccc2NC(=O)C1
  VACV E9 pol inh = 100

27) O=C(/C=C/c1ccco1)OCC(=O)N1CCC(Cc2ccccc2)CC1
  VACV E9 pol inh = 90

28) C=Cc1c(S(C)(=O)=O)sc(C(=O)Oc2ccccc2)c1C
  VACV E9 pol inh = 100

29) Cc1cc(=O)oc2c(C(=O)c3ccccc3)c(OC(=O)C(C)C)ccc12
  VACV E9 pol inh = 108

30) S=C(Nc1ccccc1)c1ccccc1
  VACV E9 pol inh = 98

31) Cc1[nH]c2ccccc2c1C(O)c1ccccn1 (stereo not drawn)
  VACV E9 pol inh = 102

32) CC(C)Cc1nn(-c2ccccc2)cc1/C=C1\Cc2ccccc2C1=O
  VACV E9 pol inh = 98

33) CCc1ccccc1NC(=O)C(C)(C)CC
  VACV E9 pol inh = 98

34) O=C(Cc1ccc(-n2c(=O)[nH]c3ccsc3c2=O)cc1)Nc1ccc(-c2ccccc2)cc1
  VACV E9 pol inh = 101

35) CC(=O)Nc1ccccc1/C=C/Br
  VACV E9 pol inh = 100

36) Cc1ccc(S(=O)(=O)N2CCCC(C(=O)NCCc3ccccc3)C2)cc1 (stereo not drawn)
  VACV E9 pol inh = 93

37) O=C(CSc1c[nH]c2ccccc12)NC1CCCCC1
  VACV E9 pol inh = 100

38) CN(C)/C=C/C(=S)c1cccs1
  VACV E9 pol inh = 99

39) Cc1ccc(S(=O)(=O)NC(=O)N2CCC(Nc3nccc(C(F)(F)F)n3)CC2)cc1
  VACV E9 pol inh = 105

40) COc1ccc(C2C=C(c3ccccc3)Nc3ncnn32)cc1 (stereo not drawn)
  VACV E9 pol inh = 96

41) O=C(SCc1ccco1)c1c(Cl)nc2ccccn12
  VACV E9 pol inh = 79

42) COc1ccc(CCNC(=O)c2cc(Sc3ccc(F)cc3)nc3ccccc23)cc1OC
  VACV E9 pol inh = 102

43) COc1ccc(Cc2nnc(SCC(=O)C(C)(C)C)n2-c2ccc(F)cc2)cc1OC
  VACV E9 pol inh = 102

44) COC1CCCCC1Nc1cc(C)ccc1C (stereo not drawn)
  VACV E9 pol inh = 105

45) CCCCC(CC)Cn1c(=S)[nH]c2c(sc3ccccc32)c1=O (stereo not drawn)
  VACV E9 pol inh = 102

46) Cn1c(=O)c2c(nc(NCc3ccco3)n2C)n(C)c1=O
  VACV E9 pol inh = 103

47) O=C(c1ccc(C(=O)N2CCCCCC2)s1)N1CCCCCC1
  VACV E9 pol inh = 107

48) Cc1cc(CSc2cc(C)c(Cl)cc2C)no1
  VACV E9 pol inh = 100

49) Cc1cc(/C=C2/SC(=O)N(C)C2=O)c(C)n1-c1ccccc1
  VACV E9 pol inh = 100

50) COC(=O)C1=C(O)/C(=C\c2ccc(Br)cc2)N=C1C
  VACV E9 pol inh = 100

51) CCCCc1nnc(NC(=O)CC)s1
  VACV E9 pol inh = 100

52) CCc1nc2ccccc2c(=O)n1-c1ccc(OC)cc1
  VACV E9 pol inh = 100

53) COc1ccc(/C=C/C(=O)Nc2cc(C)[nH]n2)cc1OC
  VACV E9 pol inh = 87

54) COc1ccc(C(=O)OC(C)CN(C)C)cc1 (stereo not drawn)
  VACV E9 pol inh = 100

55) c1ccc(CNc2ncnc3sccc23)cc1
  VACV E9 pol inh = 93

56) O=C(c1ccc(NC2=NC3CS(=O)(=O)CC3S2)cc1)N1CCCCC1 (stereo not drawn)
  VACV E9 pol inh = 96

57) Cc1ccc(S(=O)(=O)C2(C(=O)N(C)C3CCCCC3)CC2)cc1
  VACV E9 pol inh = 102

58) CC(=O)Nc1ccc2nc(NC(=O)c3cc(Cl)ccc3Cl)sc2c1
  VACV E9 pol inh = 100

59) O=C(CCN1CCOCC1)c1ccc(Br)cc1
  VACV E9 pol inh = 102

60) O=C(c1ccco1)N1CCN(CCN2CCOCC2)CC1
  VACV E9 pol inh = 99

61) CCC(=O)Nc1cccc(-c2nnc3c4ccccc4c(C)nn23)c1
  VACV E9 pol inh = 101

62) COc1ccc(-n2ccnc2SCC(=O)NCc2ccccc2)cc1
  VACV E9 pol inh = 99

63) CN(C(=O)CN1N=C(c2ccc(Cl)cc2)CCC1=O)c1ccccc1
  VACV E9 pol inh = 94

64) CCOC(=O)C1=C(N)C(=O)N(CCCN2CCOCC2)C1
  VACV E9 pol inh = 100

65) O=S(=O)(c1ccc2oc3ccc(S(=O)(=O)N4CCCCCC4)cc3c2c1)N1CCCCCC1
  VACV E9 pol inh = 100

66) O=C(O)c1ccccc1Cc1nc2cc(C(F)(F)F)ccc2c(=O)[nH]1
  VACV E9 pol inh = 87

67) Cc1ccccc1Cn1c(=O)n(Cc2ccco2)c(=O)c2ccc(C(=O)NC3CCCC3)cc21
  VACV E9 pol inh = 102

68) CC1(C)CC(=O)C2=C(C1)OC1=C(C(=O)CC(C)(C)C1)C2c1ccccn1
  VACV E9 pol inh = 111

69) CCc1cccc(NS(=O)(=O)c2ccc3[nH]c4c(c3c2)CCCC4)c1
  VACV E9 pol inh = 102

70) CCN1CCN(c2sc(S(C)(=O)=O)nc2S(=O)(=O)c2ccc(Cl)cc2)CC1
  VACV E9 pol inh = 90

71) COc1cc(NCCCC(C)N)c2ncccc2c1 (stereo not drawn)
  VACV E9 pol inh = 96

72) CCN(C(=O)Cn1c(=O)n(Cc2ccc3c(c2)OCO3)c(=O)c2ccccc21)c1cccc(C)c1
  VACV E9 pol inh = 100

73) O=C(CSc1cccc[n+]1[O-])Nc1cccc(Oc2ccccc2)c1
  VACV E9 pol inh = 98

74) CCOC(=O)NC1Cc2ccccc2C1Sc1ccccn1 (stereo not drawn)
  VACV E9 pol inh = 101

75) CCOC(=O)CCCN1C(=O)/C(=C/c2ccc(OC)cc2)SC1=S
  VACV E9 pol inh = 101

76) CCCCC[C@H](CC(=O)NO)C(=O)N[C@H](C(=O)N1CCC[C@H]1CO)C(C)C
  VACV E9 pol inh = 100

77) NC(=O)c1cccc(N=Cc2cccc(Cl)c2Cl)c1
  VACV E9 pol inh = 100

78) CCN(CC)c1nc(Cl)nc(N(C)C#N)n1
  VACV E9 pol inh = 100

79) COc1cccc(CN2CCN(Cc3ccc(F)cc3)C2c2ccc(SC)cc2)c1 (stereo not drawn)
  VACV E9 pol inh = 91

80) O=c1c2c(nc3nn[nH]n13)CCN(Cc1ccccc1)C2
  VACV E9 pol inh = 98

Some of the entries so far, tab-delimited:
no.	structure	VACV E9 pol inh
80	O=c1c2c(nc3nn[nH]n13)CCN(Cc1ccccc1)C2	98
74	CCOC(=O)NC1Cc2ccccc2C1Sc1ccccn1 (stereo not drawn)	101

The listing continues:
81) Cc1cc(C)n(-c2ncc(C#N)cn2)n1
  VACV E9 pol inh = 105

82) COc1ccc(CCNC(=O)CSc2cn(Cc3ccc(F)cc3)c3ccccc23)cc1OC
  VACV E9 pol inh = 98

83) O=C(O)CNC(=S)N(Cc1cccs1)C1CCCCC1
  VACV E9 pol inh = 101

84) O=c1[nH]c2nonc2nc1Nc1ccccc1F
  VACV E9 pol inh = 106

85) CC1CN(C(=O)c2ccccc2Cl)CCN1C(=O)c1ccccc1Cl (stereo not drawn)
  VACV E9 pol inh = 100

86) Cc1nc2c(c(C)nn2C(C)(C)C)c(C)c1CCC(=O)N(C)Cc1ccccc1
  VACV E9 pol inh = 100

87) O=C(CSC1=NCCS1)Nc1nnc(-c2ccccc2Cl)s1
  VACV E9 pol inh = 99

88) O=S(=O)(c1cccs1)n1ccnc1
  VACV E9 pol inh = 102

Molecules above containing four or more nitrogen atoms, in the order listed:
2) Cc1ccc(S(=O)(=O)NC2=NCN(CCN3CCOCC3)CN2)cc1
  VACV E9 pol inh = 98

6) COc1ccc(C)cc1NC(=S)NC12CN3CN(CN(C3)C1)C2
  VACV E9 pol inh = 100

11) CCOc1c(NC(=O)c2ccc(N)cc2)cc(NC(=O)c2ccc(N)cc2)cc1C(N)=O
  VACV E9 pol inh = 101

18) COc1ccccc1N1CCN(C(=O)CCNS(=O)(=O)c2ccc3c(c2)CCC(=O)N3)CC1
  VACV E9 pol inh = 104

20) CCCc1c(C(=O)Nc2ccccc2N2CCCCC2)cnn1-c1ccccc1
  VACV E9 pol inh = 112

39) Cc1ccc(S(=O)(=O)NC(=O)N2CCC(Nc3nccc(C(F)(F)F)n3)CC2)cc1
  VACV E9 pol inh = 105

40) COc1ccc(C2C=C(c3ccccc3)Nc3ncnn32)cc1 (stereo not drawn)
  VACV E9 pol inh = 96

46) Cn1c(=O)c2c(nc(NCc3ccco3)n2C)n(C)c1=O
  VACV E9 pol inh = 103

61) CCC(=O)Nc1cccc(-c2nnc3c4ccccc4c(C)nn23)c1
  VACV E9 pol inh = 101

78) CCN(CC)c1nc(Cl)nc(N(C)C#N)n1
  VACV E9 pol inh = 100

80) O=c1c2c(nc3nn[nH]n13)CCN(Cc1ccccc1)C2
  VACV E9 pol inh = 98

81) Cc1cc(C)n(-c2ncc(C#N)cn2)n1
  VACV E9 pol inh = 105

84) O=c1[nH]c2nonc2nc1Nc1ccccc1F
  VACV E9 pol inh = 106

86) Cc1nc2c(c(C)nn2C(C)(C)C)c(C)c1CCC(=O)N(C)Cc1ccccc1
  VACV E9 pol inh = 100

87) O=C(CSC1=NCCS1)Nc1nnc(-c2ccccc2Cl)s1
  VACV E9 pol inh = 99
